TRPML1 inh = inhibitors of human TRPML1 channel | Q9GZU1 | TRPML1-inducible cells, Ca2+ dye fluorescence, FDSS; hits give low values; inhibition of EC80 agonist-evoked calcium signal | activity change, negative = inhibition, % (no concentration beside the values) | 390,000 compounds, 0.02% hits | AID 624415; in the data active means activity change below about -50%; inconclusive means about -30% to -50%; inactive means above about -30%;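 also: stimulus is agonist 54-4 at its EC80 concentration; % is scaled to controls: 0 for no effect and ±100 for the full control effect; compound concentration not given in the record; the text of the record puts the active cut at -80%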
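Calcium fluorescence in TRPML1-DL cells induced overnight with Tet: a 110 s read after compound pin addition, then a 110 s antagonist read after challenge with 54-4 at 4 uM final (EC80).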
PINK1 modulator = modulators of PINK1 expression; Potency, µM (series often up to 76.6 µM), for the others: at the highest dose activation (PINK1 increase), actives largely listed as activators; PINK1 immunofluorescence, high-content cytometry, 24 h; 410,000 compounds, 0.2% hits; AID 624263; active = well fitted activation curve with a large enough effect; inconclusive = small, poorly fitted or top-dose-only effect; inactive = flat fitted curve, though single readings scatter; cell line not stated here;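 also: potency is read from the fitted curve at half-maximal effect; % of control where 0% means no effect; nearly all actives have a fitted effect of over 65% in size; a mitochondrial uncoupler was the plate control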
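PINK1 protein level read as immunofluorescence by microplate cytometer in a fixed, stained stable cell line after 24 h exposure to five compound concentrations, with CCCP as control.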
TRPML1 ag = human mucolipin-1 channel agonism; Q9GZU1; activation, % (no concentration beside the values); 410,000 compounds, 0.12% hits; AID 624414; TRPML1-expressing cells, Ca2+ dye fluorescence, FDSS; host cell line not named in the record; reference of the full effect not given here; in the data active = activation above about 50%; inconclusive = about 30% to 50%; inactive = below about 30%; also: 0% is about no effect; the text of the record puts the active cut at 80%
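TRPML1-DL cells, Tet-induced overnight (~16 h, 37 degrees C), loaded 45-90 min at room temperature with Ca8 no-wash calcium dye plus quencher. FDSS fluorescence: 10 s baseline, compound pin-transfer, 110 s agonist read, then EC80 54-4 (4uM final) and 110 s antagonist read.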
Menin-MLL FL inh = displaces fluorescein MLL peptide from human menin; Fluorescence polarization, fluorescein-MLL peptide displacement from menin; FP activity change, % at 61.4 µM; 290,000 tested, under 10 active; inconclusive = falling polarisation curve, or a change in total fluorescence; inactive = total fluorescence flat and polarisation flat or rising; no compound was filed as active; the % refers to the polarisation; negative = inhibition;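 also: % of control where 0% means no effect; inhibitors lower the polarisation; unlabelled MLL peptide was the positive control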
TRPV1 potentiator = human TRPV1 potentiation; TRPV1-expressing cells, Fluo-8 calcium influx, capsaicin EC20 potentiation; host cell line not named in the record; control for the full effect not named in the record; potentiation, % at 8.33 µM; 320,000 compounds, 0.02% hits; AID 540277; active means potentiation above 80%; inconclusive means 30% to 80%; inactive means below 30%; also: 0% is about no effect
Target sequence (Q8NER1 whole entry, looked up): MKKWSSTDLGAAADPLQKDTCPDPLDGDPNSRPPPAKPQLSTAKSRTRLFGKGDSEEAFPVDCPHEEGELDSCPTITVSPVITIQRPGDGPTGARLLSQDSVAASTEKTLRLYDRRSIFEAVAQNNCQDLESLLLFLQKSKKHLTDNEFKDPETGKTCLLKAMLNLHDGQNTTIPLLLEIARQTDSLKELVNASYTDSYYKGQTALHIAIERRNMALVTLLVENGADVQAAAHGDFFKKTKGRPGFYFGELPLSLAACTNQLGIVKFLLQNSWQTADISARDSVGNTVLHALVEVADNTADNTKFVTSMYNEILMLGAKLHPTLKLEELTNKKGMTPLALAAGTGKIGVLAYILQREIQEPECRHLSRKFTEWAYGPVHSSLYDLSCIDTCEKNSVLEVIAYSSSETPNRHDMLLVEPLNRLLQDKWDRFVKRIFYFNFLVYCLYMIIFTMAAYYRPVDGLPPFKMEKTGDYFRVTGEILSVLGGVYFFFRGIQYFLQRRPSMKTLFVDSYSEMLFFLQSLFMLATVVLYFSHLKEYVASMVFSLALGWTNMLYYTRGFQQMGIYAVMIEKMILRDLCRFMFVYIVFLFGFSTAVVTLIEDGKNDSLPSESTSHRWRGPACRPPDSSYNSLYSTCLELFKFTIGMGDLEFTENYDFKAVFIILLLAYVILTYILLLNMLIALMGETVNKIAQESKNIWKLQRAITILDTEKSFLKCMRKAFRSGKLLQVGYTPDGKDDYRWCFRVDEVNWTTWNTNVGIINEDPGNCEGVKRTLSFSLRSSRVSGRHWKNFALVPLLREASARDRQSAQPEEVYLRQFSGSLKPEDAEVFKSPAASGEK
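Fluo-8 calcium influx in TRPV1-expressing cells, kinetic read (ex 480/em 520 nm). Compound added and read 3 min for agonist activity, followed by capsaicin at EC20 final and 2 min further read for enhancement.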
Sfp PPTase inh = inhibitors of Bacillus subtilis Sfp phosphopantetheinyl transferase; Biochemical Sfp PPTase activity, qHTS; Potency, µM, for the others: max response, negative = inhibition, most hits filed as inhibitors; Q9F4F7; AID 1490; 310,000 compounds, 3.5% hits; active = well fitted inhibition curve with a large enough effect; inconclusive = small, poorly fitted or top-dose-only effect, or another doubt; inactive = no such curve, though single readings can be large or run the other way;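 also: the enzyme is Sfp with the accession as filed and its product quenches rhodamine fluorescence; potency is read from the fitted curve at half-maximal effect; 0% = enzyme reaction without inhibitor and -100% = no enzyme wells; top concentration of the series not given in the record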
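Buffer: 50 mM Hepes-Na pH 7.6, 10 mM MgCl2, 0.01% Nonidet P-40, 0.01% BSA. Enzyme 15 nM, pre-exposed to compound 15 min; substrates then added and fluorescence change tracked over 30 min.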
ClpP mod = qHTS Assay for Activators of ClpP | ATP-dependent Clp protease proteolytic subunit (Bacillus subtilis (strain 168)), P80244 | purified B. subtilis ClpP, FRET peptide cleavage, 20 min | Potency, µM (top dose mostly 57.5 µM), for inactives: at the highest dose activity change, negative = active | 340,000 compounds, 1.9% hits | AID 651965, 2013; active = well fitted falling curve with a large enough effect; inconclusive = small, poorly fitted or top-dose-only effect; inactive = no such curve, though single readings can be large or run the other way; also: potency is read from the fitted curve at half-maximal effect; the source files actives as falling curves though it sought activators and does not explain the sign; nearly all actives have a fitted effect of over 65% in size; many hits overshoot -100%
Target sequence (P80244 whole entry, looked up): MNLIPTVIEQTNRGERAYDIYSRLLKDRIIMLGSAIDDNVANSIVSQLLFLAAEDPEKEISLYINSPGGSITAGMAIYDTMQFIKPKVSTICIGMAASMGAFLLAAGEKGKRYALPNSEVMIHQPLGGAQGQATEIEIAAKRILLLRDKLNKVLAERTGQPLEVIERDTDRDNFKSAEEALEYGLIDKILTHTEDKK
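Buffer: 100 mM Tris/HCl pH8, 100 mM KCl, 0.05% low protease BSA, 2.5% glycerol, 0.01% Tween-20. ClpP 10 microg/mL final; 20 min RT; delta FRET normalized to ADEP and DMSO controls.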
* = called active by the depositor; ? = inconclusive; · = not tested or not shown; & = joins results of further samples; [ ] = another dose, or the depositor's remark.

SMILES	TRPML1 inh	PINK1 modulator	TRPML1 ag	Menin-MLL FL inh	TRPV1 potentiator	Sfp PPTase inh	ClpP mod
CCC(=O)C1=C(c2cccc([N+](=O)[O-])c2)N(C(=O)CC)n2c(nnc2-c2ccccc2)S1	-23	-0.3%	0.9	·	·	·	2.3%
CC(=O)Nc1ccc(NC(=S)Nc2ccc(Br)cc2)cc1	11	-0.2%	0.8	1.8	·	-1%	·
Cc1ccccc1-c1csc(C(O)c2ccc(F)c(F)c2)n1 (configuration not stated)	·	16%	-0.6	·	·	·	-3.9%
O=C(COC(=O)c1cc2c(s1)CCC2)Nc1ccc(F)cc1	-14	0.5%	2.1	4.0	-11	28%	·
COc1cccc(Cn2c(=O)c(-c3ccc(Cl)cc3)nc3cnc(N4CCNCC4)nc32)c1	·	3.1%	·	-11	·	40µM*	·
COC(=O)c1[nH]c2cccc(OC)c2c1NC(=O)CCN1CCN(c2ccccc2OC)CC1	-1	4.2%[38.3 µM]	-0.3	1.8	10	2%	?
Cc1ccc(NC(=O)COC(=O)c2ccc([N+](=O)[O-])o2)cc1S(=O)(=O)N1CCCCCC1	1	0.6%	-0.4	0.7	-6	8%	·
Cc1ccn2cc(CCNC(=O)CC3CCCCC3)nc2c1	5	4.6%	0.0	-1.8	20	-16%	·
CCOc1ccc(NC(=O)CN(C)C(=O)Cn2cnc3c2c(=O)n(C)c(=O)n3C)cc1OCC	-9	3.5%	-0.6	·	27	·	1.0%
S=C(N/N=C/c1ccc(Cl)c(Cl)c1)Nc1ccccc1Cl	-13	15%	-0.7	1.0	0	-16%	-1.7%
CCOC(=O)COc1nc(-c2ccc(Cl)cc2)cc(-c2ccco2)c1C#N	-4	6.4%	0.0	-0.3	-6	1%	·
CC1=C(C(=O)Nc2ccccc2)C(c2cccn2C)n2ncnc2N1 (configuration not stated)	-5	-3.1%	0.7	·	·	·	-1.6%
O=C(C1CCCCC1)N1C[C@@H](O)[C@H](n2cc(C3CC3)nn2)C[C@@H]1c1ccc(Cl)cc1	-2	3.3%	-0.4	·	·	·	1.9%
O=C(CSc1nnc(-c2cccs2)n1C1CC1)NCC1CCCO1 (configuration not stated)	-2	-1.1%	-0.1	·	-1	·	-15%
CCc1noc(C)c1C(=O)Nc1ccc(Cl)c(S(=O)(=O)N2CCCCC2)c1	-21	3.0%	-0.9	·	7	·	-2.1%
COc1ccc(CCN2C(=O)c3ccccc3C2(O)c2ncc[nH]2)cc1OC (configuration not stated)	-12	0.2%	-0.6	-2.3	?	?	0.4%
Cc1ccc(N=C2C(=O)Nc3ccccc32)c(C)c1	0	1.6%	0.9	-6.3	9	-4%	·
Cc1ccc(NC(=O)CN(C)S(=O)(=O)c2ccc3c(c2)n(C)c(=O)c(=O)n3C)cc1	14	4.7%	-0.8	·	14	8%	-12%
CSc1ncccc1C(=O)NC(C)C1CC2CCC1C2 (configuration not stated)	-14	3.0%	3.1	-1.6	-25	21%	·
C=CCSc1nc(C)cc(/C=C\c2ccccc2)c1C#N	18	17%[38.3 µM]	0.0	4.5	·	17%	28µM*
Cn1c(SCC(=O)NN2C(=O)NC(C)(c3ccccc3)C2=O)nnc1-c1ccncc1 (configuration not stated)	-2	1.0%	0.8	·	·	·	-5.0%
Cc1ccc(C2=NN(CC(=O)O)C(=O)CC2)cc1	11	2.1%	0.0	4.4	9	8%	·
CC(C)N(C(=O)COC(=O)c1cc(Cl)cc(Cl)c1N)C(C)C	-4	8.0%[38.3 µM]	1.0	-3.7	-25	-14%	16µM*
O=C(NCc1nnnn1-c1ccc(Cl)cc1)c1ccc(Br)o1	-10	-1.4%	-0.2	·	-22	·	16µM*

Entries above marked active in Sfp PPTase inh:
| compound | TRPML1 inh | PINK1 modulator | Menin-MLL FL inh | Sfp PPTase inh |
| --- | --- | --- | --- | --- |
| COc1cccc(Cn2c(=O)c(-c3ccc(Cl)cc3)nc3cnc(N4CCNCC4)nc32)c1 | · | 3.1% | -11 | 40µM* |

More results.
SMILES	TRPML1 inh	PINK1 modulator	TRPML1 ag	Menin-MLL FL inh	TRPV1 potentiator	Sfp PPTase inh	ClpP mod
CCn1nnnc1SCC(=O)NCc1ccc2c(c1)OCO2	18	-1.4%	-0.7	-2.1	-19	-6%	-2.2%
CC(=O)n1cc([C@@H]2C=C(C(=O)Nc3ccccc3)O[C@H](OCCCCO)C2)c2ccccc21	42	-0.4%	0.7	1.9	12	-8%	-12%
CC1=C(c2ccc(C)c(C)c2)S(=O)(=O)N=C1N1CCC(C(=O)N2CCC(C(N)=O)CC2)CC1	34	-0.3%	3.7	·	·	·	-14%
O=C(Nc1cccs1)Nc1c(F)c(F)c(F)c(F)c1F	10	2.2%	1.1	7.9	9	45µM*	-1.4%
CC(C)CCNC(=O)CN1C(=O)CSc2ccc(S(=O)(=O)N3CCC(C)CC3)cc21	0	1.3%	0.0	·	·	·	0.8%
COc1ccc2nc(SCC(=O)NCc3ccc(OC)c(OC)c3)[nH]c2c1	0	3.9%	-1.5	1.2	3	5%	-0.2%
Cc1cc(C)nc(Nc2ccccc2Br)n1	52	4.4%	-0.2	2.1	20	8%	-4.5%
COc1ccc(CNC(=O)COC(=O)c2ccccc2C(=O)c2ccccc2)cc1	10	-0.2%	2.5	0.6	-13	16%	-1.4%
COc1ccccc1CNC(=O)COC(=O)[C@H](Cc1c[nH]c2ccccc12)NC(=O)c1cccs1	-4	5.6%	0.8	-0.9	12	9%	-2.0%
COC(=O)c1ccc(NC(=O)COc2cccc(-n3cnnn3)c2)cc1	14	4.0%	-0.6	·	29	7%	-6.0%
Cc1cccc(-c2nc(CS(=O)CC(=O)NCc3ccco3)c(C)o2)c1 (configuration not stated)	2	3.2%	-0.9	3.6	-5	7%	-4.7%
CC(C)c1nnc(NC(=O)CSc2nnc(NC(=O)c3c(F)cccc3F)s2)s1	4	5.3%	2.4	2.1	-11	20%	0.4%

Look-ups from the results shown.
Value for CC1=C(c2ccc(C)c(C)c2)S(=O)(=O)N=C1N1CCC(C(=O)N2CCC(C(N)=O)CC2)CC1 in TRPML1 inh: 34
Value for CC(C)c1nnc(NC(=O)CSc2nnc(NC(=O)c3c(F)cccc3F)s2)s1 in TRPML1 inh: 4

The results go on.
SMILES	TRPML1 inh	PINK1 modulator	TRPML1 ag	Menin-MLL FL inh	TRPV1 potentiator	Sfp PPTase inh	ClpP mod
COC(=O)Cn1ccc(N(C)C)c(C#N)c1=O	2	-4.4%[38.3 µM]	0.1	5.0	-10	14%	0.6%
CCOc1cc(C(=O)N(C)Cc2cc3ccccc3[nH]c2=O)cc(OCC)c1OCC	2	-0.5%	2.0	-1.0	?	14%	-14%
O=C(NCc1ccccc1)C(=O)NCC1OCCN1C(=O)c1ccc(Cl)cc1 (configuration not stated)	1	15%	-1.4	1.5	15	12%	·
CCOC(=O)C1(C)CCN1C(=O)c1cc2ccccc2s1 (configuration not stated)	·	1.7%	-1.4	·	·	·	-13%
O=C(NCC(c1ccco1)N1CCCC1)c1cccc(NS(=O)(=O)c2ccc(Br)cc2)c1 (configuration not stated)	12	1.6%	0.7	·	?	·	-4.7%
CCCc1[nH]nc2c1C(c1cc(OC)cc(OC)c1)C(C#N)=C(N)O2 (configuration not stated)	0	4.3%	-0.8	-2.2	6	-19%	0.9%
Cc1cc(C)n(-c2nc(SCC(=O)O)c3c4c(sc3n2)CCCC4)n1	·	·	·	0.6	-1	-4%	·
CCc1ccc(NC(=O)c2sc3ncnc(N(C)C4CCCCC4)c3c2C)cc1	8	0.7%	1.9	·	·	·	-16%
CC(C)CN1CCC(Oc2cccc(C(=O)NCCc3ccccc3)c2)CC1	-4	3.5%	0.7	-7.5	-23	16%	-0.8%
Cc1ccc(CN2CCN(Cc3ccco3)CC2)cc1	·	-0.4%	·	-1.5	23	?	0.9%
CN(Cc1cn(C)nc1-c1ccc(Oc2ccccc2)cc1)C1CCOC1 (configuration not stated)	5	-1.1%	0.1	-0.1	5	22%	-1.0%
CCn1cc(C(=O)NCc2ccccc2OC)c(=O)c2cc(S(=O)(=O)N3CCCCC3)ccc21	39	1.3%	-0.2	·	·	·	0.3%
COCCOC(=O)c1c(-c2ccccc2)c(-c2ccccc2)nn(C)c1=O	-2	-1.4%	4.3	·	·	·	-1.2%
CCn1c(CN2CCN(Cc3ccc(C)cc3)C(CCO)C2)nc2ccccc21 (configuration not stated)	12	-0.7%	0.2	-3.2	-1	4%	·
Cc1ccc2c(C)nc(N/C(N)=N/S(=O)(=O)c3ccccc3)nc2c1	-5	0.2%	1.0	·	-17	-8%	28µM*
COc1ccc(CN2CCC(=O)N([C@H](CO)CC(C)C)CC2)cc1	2	0.4%	0.0&0.1	2.2	24	21%	1.4%&0.4%
O=C1CCc2cc(S(=O)(=O)N3CCC(C(=O)NC4CCCC4)CC3)ccc2N1	-2	1.2%	-0.1	-0.2	?	14%	0.2%
COc1cc2c(cc1OC)CN(C(=O)c1ccc(OC)c(S(=O)(=O)N3CCCC3)c1)CC2	24	3.2%	-0.7	·	8	·	?
CC(C)OC(=O)CSc1nnc(-c2cnccn2)n1Cc1ccco1	-21	-1.9%	-1.5	3.6	-5	-6%	-1.3%
COc1ccc(CCN2CC(C(=O)Nc3cccc(C(C)=O)c3)CC2=O)cc1OC (configuration not stated)	-12	-1.9%	0.8	3.9	7	17%	·
O=C(Nc1ccc(C(=O)N2CCCCC2)cc1)c1ccccc1Br	52	2.0%	0.1	·	·	·	0.5%
NC(=O)C1(Nc2ccccc2)CCCC1	19	1.2%	-0.1	·	·	·	0.8%
Cc1ccc(NC(=O)CN2C(=O)CSc3ccc(S(=O)(=O)N(C)C)cc32)cc1C	-8	1.4%	0.8	·	·	·	-1.0%
Cc1ccc(SCC(=O)O/N=C(\N)c2ccc([N+](=O)[O-])cc2)cc1	21	0.4%[38.3 µM]	-0.2	4.7	1	-13%	0.7%
CCOC(=O)N1CCN(C(c2ccnc3ccccc23)c2nnnn2-c2ccc3c(c2)OCCO3)CC1 (configuration not stated)	·	5.5%	-1.0	·	·	·	-2.2%
COC(=O)CNC(c1ccccc1)c1cc(Br)ccc1NC(=O)CCN1CCOCC1 (configuration not stated)	-23	7.6%	0.7	4.9	-22	32µM*	-4.4%
